Assay outcomes as filed in PubChem.
CBX7 inh: blocks human CBX7 binding to H3K27me3 peptide. hit rate 1.1% among 66,000. AlphaScreen His6-CBX7 / biotin-H3K27me3 peptide binding; active compounds read low. normalised signal (fraction of DMSO) (test concentration not listed); in the data active = normalised signal below about 0.5;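 also: 100 nL library stock added to about 20 µL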
Target sequence (O95931 whole entry, looked up): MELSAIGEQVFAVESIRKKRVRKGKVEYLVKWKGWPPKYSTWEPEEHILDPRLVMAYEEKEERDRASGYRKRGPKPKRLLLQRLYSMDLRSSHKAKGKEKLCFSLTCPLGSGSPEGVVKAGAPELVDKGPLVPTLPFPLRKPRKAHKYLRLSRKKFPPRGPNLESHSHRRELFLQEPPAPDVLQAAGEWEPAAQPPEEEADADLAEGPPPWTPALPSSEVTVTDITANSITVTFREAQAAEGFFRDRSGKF
CBX7 inh z-score: recorded beside CBX7 inh, whose call it bears; z-score; measured here: z-score of CBX7 signal; some inactives read as strong as hits; reference of the scale not given here;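 same signal on another scale; lower means less binding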
Starred values were filed as active, the others as inactive. A portion of the library. The share of hits here may be higher or lower than overall.

SMILES | CBX7 inh | CBX7 inh z-score
COc1ccc(OC)c2c(N3CC(C)OC(C)C3)cc(C(F)(F)F)nc12 (configuration not stated) | 1.24 | 2.29
O=C(O)c1c[nH]c2ccc(S(=O)(=O)N3CCN(c4ccccn4)CC3)cc2c1=O | 0.698 | -4.04
Cc1oc(-c2ccccc2F)nc1CS(=O)(=O)CC(=O)NCCCN1CCOCC1 | 0.977 | -0.611
O=c1oc2ccc(Br)cc2cc1-c1nc(-c2ccc(Br)cc2)cs1 | 1.06 | 1.55
Cc1nc2c(C(=O)NCc3ccc4c(c3)OCO4)c[nH]n2c(=O)c1Cc1ccccc1F | 1.02 | 0.455
Cc1[nH]c2ccccc2c1CCNC(=O)c1ccc(C(F)(F)F)cc1 | 0.619 | -6.93
COc1ccc2nc(Nc3ncc4c(n3)CCCC4=O)nc(C)c2c1 | 1.04 | 1.17
N#Cc1ccc(NC(=O)c2cc3n(n2)C(C(F)(F)F)CC(c2ccc4c(c2)OCO4)N3)cc1 (configuration not stated) | 0.822 | -0.178
Cc1cc(NC(=O)CCn2ccnc2C)ccc1Br | 1.12 | 1.45
Cc1ccc2c(c1)N(CC(=O)NCCN1CCOCC1)C(=O)CO2 | 1.09 | 0.432
CCc1ccccc1N(C)S(=O)(=O)c1ccc2[nH]cc(C(=O)N3CCCCC3)c(=O)c2c1 | 0.881 | -1.64
CCC(=O)N1CCc2cc(S(=O)(=O)NCCc3ccc(S(N)(=O)=O)cc3)ccc21 | 1.01 | 0.124
CCc1cccc(C)c1Nc1c(-c2ccccc2)nc2sccn12 | 0.901 | -4
COc1ccc(C2CC(=O)N(Cc3ccccc3)c3ccccc3S2)cc1 (configuration not stated) | 1.08 | 1.19
COCCCNC(=O)c1ccc2c(c1)N(Cc1cccc(F)c1)C(=O)c1ccccc1S2 | 1.04 | 1.04
CCOCCCNC(=O)c1ccc2c(c1)N(Cc1ccccc1)C(=O)CS2 | 1.03 | 0.131
O=C(C1CCCN1S(=O)(=O)c1cccc2cccnc12)N1CC=C(c2ccccc2)CC1 (configuration not stated) | 0.968 | -1.06
CC1=C(C#N)C(c2ccc(Cl)c(Cl)c2)C2=C(CC(C)(C)CC2=O)N1 (configuration not stated) | 1.06 | 1.15
O=C(NCc1cccs1)C1CC(c2ccc(F)cc2)=NO1 (configuration not stated) | 1.05 | 2.03
O=C(Nc1ccc(C(F)(F)F)cc1)c1n[nH]c(=O)c2ccccc12 | 1.17 | 1.04
COc1ccc(CNC(=O)CCc2c(C)nc3cc(-c4cc(OC)cc(OC)c4)nn3c2C)cc1 | 0.953 | -1.06
COc1cc2c(c(OC)c1)C(c1cc3c(cc1Br)OCO3)CC(=O)N2 (configuration not stated) | 0.929 | -0.901
O=C(c1ccc(F)cc1)N1CCCC(c2ccccc2)C1 (configuration not stated) | 0.96 | -0.794
Cc1cc(C(=O)NCCCN2CCN(c3ccccc3F)CC2)n(-c2ccccc2)n1 | 1.01 | 0.277
COc1ccc(OC)c(N2C(=O)C3C4C=CC(C4)C3C2=O)c1 (configuration not stated) | 0.984 | -0.26
O=C(O)CCCNc1c2ccccc2nc2ccccc12 | 1.14 | 1.65
COc1ccc(-c2nc(CN3CCC(C(=O)NCCN4CCOCC4)CC3)c(C)o2)cc1OC | 1.07 | 2.64
CCN(CC)c1nc(C)nc2sc(C(=O)Nc3ccc(C)cc3Br)c(C)c12 | 1.08 | 2.24
Cc1cccc(NC(=O)c2cnc3scc(C)n3c2=O)c1 | 0.934 | -0.781
Cc1ccc(C)c(CN2C(=O)CSc3ccc(C(=O)NCCc4ccccc4)cc32)c1 | 1.02 | 0.844
CCOc1ccccc1CNC(=O)c1cc(-c2ccc(OC)cc2)nc2ccc(C(C)C)cc12 | 0.978 | -0.403
Cc1cccc(Nc2cc(C)c3ccc(O)cc3n2)c1C | 0.938 | -1.23
Cc1ccc(-c2noc(CSc3nc(C)cc(=O)[nH]3)n2)cc1 | 1.18 | 2.54
O=C(O)c1ccc2[nH]c(=O)c(Cc3ccc(OC(F)F)cc3)nc2c1 | 1.18 | 1.88
Cc1ccc(OCc2nc(C#N)c(NCc3ccc(F)cc3)o2)cc1 | 0.893 | -0.146
O=C(NC1CC1)c1cc(=O)[nH]c2ccc(S(=O)(=O)N3CCCCCC3)cc12 | 0.954 | -0.617
CCOc1ccc2nc(N3CCCC(C(=O)NC(C)c4ccc5c(c4)OCCO5)C3)sc2c1 (configuration not stated) | 0.734 | -7.2
COCCNc1oc(-c2ccc(F)cc2)nc1C#N | 1.27 | 2.94
Cc1nc2c(c(C)nn2-c2ccccc2)c(C)c1CCC(=O)Nc1ccc2c(c1)OCO2 | 0.746 | -1.93
CCOC(=O)N1CCC(Nc2c(NC3CCC(C)CC3)c(=O)c2=O)CC1 (configuration not stated) | 1.04 | 0.671
Cc1c(C(=O)NCc2ccccc2Cl)oc2ccc(S(=O)(=O)N3CCOCC3)cc12 | 1.03 | 0.743
COc1cc(OC)c(Nc2cc(C)nc3ncnn23)cc1Cl | 0.997 | -0.0588
CCC1Oc2ccccc2N(CC(=O)NCCc2ccc(C)cc2)C1=O (configuration not stated) | 0.838 | -1.77
COc1ccccc1-c1c(C)nn2c(N3CCN(c4cccc(C(F)(F)F)c4)CC3)cc(C)nc12 | 1.03 | 0.417
COc1ccc(CNC(=O)CCc2nc3ccccc3n(Cc3c(F)cccc3Cl)c2=O)cc1 | 1.09 | 0.101
Cc1ccc(-c2csc(NC(=O)c3ccc(S(=O)(=O)N(C)c4ccccc4)cc3)n2)cc1 | 0.995 | -0.202
CCOc1cccc2sc(NC(=O)c3ccc(S(=O)(=O)N4CCOCC4)cc3)nc12 | 1.16 | 1.81
Cc1ccc(-n2c(CCC(=O)O)ccc2-c2ccc(F)cc2)cc1C | 1.02 | 0.736
CCOc1ccc(-n2cc(-c3ccccc3)c3c(NCc4ccccn4)ncnc32)cc1 | 0.949 | -1.3
c1cncc(Cc2nnc(NC3CCCCCC3)c3ccccc23)c1 | 1.03 | 1.36
Cc1ccc(-c2nc(CS(=O)(=O)CC(=O)Nc3c(C)cccc3C)c(C)o2)cc1 | 1 | 0.00127
Cc1ccc(Cn2cc(C(=O)c3ccccc3)c(=O)c3cc(C)ccc32)cc1 | 0.44* | -1.98*
Cc1ccc(NC(=O)C(C)N2C(=O)c3ccccc3C2=O)c(Br)c1 (configuration not stated) | 1.01 | 0.553
CC(C)c1ccc(NS(=O)(=O)c2ccc3[nH]cc(C(=O)NC4CC4)c(=O)c3c2)cc1 | 0.736 | -4.96
Cc1cccc(NC(=O)c2cc(S(=O)(=O)N3CCC(C)CC3)ccc2F)c1C | 1.05 | 0.539
CCOC(=O)N1CCN(C(=O)Cc2ccc(NC3=NC4CS(=O)(=O)CC4S3)cc2)CC1 (configuration not stated) | 1 | 0.108
CCOC(=O)c1cccc(NC(=O)CCCN2C(=O)c3cccnc3C2=O)c1 | 1.07 | 0.691
O=C(Cn1ccnc1)NCc1n[nH]c(=O)c2ccccc12 | 1.08 | 0.545
CCN(CC)C(=O)c1c[nH]c2ccc(S(=O)(=O)Nc3ccccc3C)cc2c1=O | 0.935 | -1.23
O=C(NCc1cccnc1)c1cccc2c1C(=O)N(Cc1cccnc1)C2 | 0.941 | -1.1
Following part.
SMILES | CBX7 inh | CBX7 inh z-score
COc1cc(OC)cc(C(=O)Nc2nc(-c3ccccc3)c(C)s2)c1 | 1.08 | 1.14
COC(=O)c1cc2c(s1)CN(C1CCCc3ccccc31)C2 (configuration not stated) | 0.998 | -0.087
Cc1cccc(NC(=O)c2sc3ncn(CC(=O)N4CCCC(C)C4)c(=O)c3c2C)c1 (configuration not stated) | 0.961 | -0.418
CC1CC(C)CN(c2oc(COc3ccccc3F)nc2C#N)C1 (configuration not stated) | 0.633 | -2.29
CCCCNC(=O)CS(=O)(=O)Cc1nc(-c2ccccc2C)oc1C | 1.04 | 0.837
Cc1cc(C)cc(C(=O)N2CC(=O)Nc3ccc(F)cc3C2c2ccc(F)cc2)c1 (configuration not stated) | 0.959 | -1.03
COCCCNC(=O)CSCc1nc(-c2ccc(Cl)cc2)oc1C | 1.05 | 2.07
O=C(NCc1cccs1)c1cccc2c1C(=O)N(Cc1cccnc1)C2 | 1.01 | 0.0136
CCCCN(CC)C(=O)c1c[nH]c2ccc(S(=O)(=O)Nc3ccccc3F)cc2c1=O | 0.928 | -1.33
Cc1ccc(C(=O)Nc2c(C(=O)Nc3ccccc3F)oc3ccccc23)cc1 | 1.05 | 1.29
CCOc1ccc(-n2ccnc2SCC(=O)Nc2nnc(C)s2)cc1 | 1.21 | 1.62
COc1ccc(Cl)cc1C(=O)Nc1cccc(-c2nc3ccc(C)cc3o2)c1C | 1.04 | 0.778
CCOC(=O)c1[nH]c2c(c1C)C(=O)CC(c1ccc(OC)cc1)C2 (configuration not stated) | 1.01 | 0.202
O=c1c(S(=O)(=O)c2ccccc2)cn(Cc2cccc(F)c2)c2ccc(F)cc12 | 0.928 | -1.39
CC(C)N(CC#CCC(O)(c1ccccc1)C1CCCC1)Cc1ccccc1 (configuration not stated) | 1.12 | 4.59
Cc1ccc(-n2cc(-c3ccc(F)cc3)[nH]c2=O)cc1Cl | 1.02 | 0.45
Cc1cccc(-c2noc(CCCOc3ccc(Cl)cc3Cl)n2)c1 | 1.23 | 2.34
O=C(NCCc1nc2ccccc2n1Cc1ccccc1F)c1ccc(Cl)cc1 | 0.96 | -0.166
CCOc1ccc(CCNC(=O)c2ccc3c(c2)N=C(CC)c2cc(C)ccc2S3)cc1OCC | 0.708 | -4.19
CCN(CCN(C)C)S(=O)(=O)c1ccc2c(c1)CCN2C(C)=O | 1.28 | 2.92
O=C(Cn1nc(-c2ccccc2)ccc1=O)NCc1ccc2c(c1)OCO2 | 1.13 | 3.98
CC(C)OCCCNC(=O)CN1C(=O)CSc2ccccc21 | 0.994 | -0.102
CCc1ccc(-c2nc(Cc3ccccc3)no2)cc1 | 1.74 | 18.5
Cn1cc(C(=O)N2CCN(c3ccc(F)cc3)CC2)c2c3ccccc3n(C)c2c1=O | 0.766 | -4.61
CCOc1ccc(C(=O)Nc2c(C(=O)c3ccc(Br)cc3)oc3ccccc23)cc1 | 1.08 | 0.356
Cc1ccc(C)c2[nH]c(=O)c(CCNS(C)(=O)=O)cc12 | 1.07 | 0.448
OC(c1ccccc1)(c1ccccc1)c1nc2ccccc2n1Cc1cccc(Br)c1 | 0.954 | -0.545
CC1(C)CC(=O)c2cc(OCC(=O)NCc3ccc4c(c3)OCO4)ccc2O1 | 1.06 | 1.19
CCCCCn1c(C2CC(=O)N(c3ccccc3)C2)nc2ccccc21 (configuration not stated) | 0.912 | -0.38
O=C(c1cccc(F)c1)N1CCN(c2ccc3nncn3n2)CC1 | 0.905 | -1.71
CCN1CCN(c2ncc(C(=O)NCc3cccnc3)c3ccccc23)CC1 | 1.37 | 0.752
COC(=O)Cc1nc(Nc2ccccc2OC)c2c(C)c(C)sc2n1 | 1.01 | 0.238
Cc1cc(C)nc(Nc2nc3ccccc3s2)n1 | 1.08 | 1.42
Cc1cc(N2CCOCC2)nc2ccc(NC(=O)Cc3c(F)cccc3Cl)cc12 | 1.15 | 0.989
Cc1cc2cc(CCNC(=O)C(C)C)c(=O)[nH]c2cc1C | 1.11 | 0.714
N#CCCn1c(-c2ccccn2)nc2ccccc21 | 1.2 | 1.45
CC1CC(C)CN(C(C(=O)NC2CCCC2)c2ccccc2)C1 (configuration not stated) | 1 | 0.153
COc1cccc(CNC(C)c2ccccc2)c1OCc1ccccc1F (configuration not stated) | 1.06 | 2.08
CCOc1ccc2nc(N3CCCC(C(=O)NCc4ccc(C)cc4)C3)sc2c1 (configuration not stated) | 1.39 | 2.3
CCN(c1ccccc1)S(=O)(=O)c1ccc2[nH]cc(C(=O)NCc3ccc(C)cc3)c(=O)c2c1 | 1.01 | 0.24

Entries of single compounds, quoted from the list.
Shown for `CC1CC(C)CN(C(C(=O)NC2CCCC2)c2ccccc2)C1` (configuration not stated) = CBX7 inh: 1; CBX7 inh z-score: 0.153
Shown for `Cc1cc(C)nc(Nc2nc3ccccc3s2)n1` = CBX7 inh: 1.08; CBX7 inh z-score: 1.42
Shown for `CCOc1ccc(C(=O)Nc2c(C(=O)c3ccc(Br)cc3)oc3ccccc23)cc1` = CBX7 inh: 1.08; CBX7 inh z-score: 0.356

Compounds above containing bromine (seven):
SMILES | CBX7 inh | CBX7 inh z-score
O=c1oc2ccc(Br)cc2cc1-c1nc(-c2ccc(Br)cc2)cs1 | 1.06 | 1.55
Cc1cc(NC(=O)CCn2ccnc2C)ccc1Br | 1.12 | 1.45
COc1cc2c(c(OC)c1)C(c1cc3c(cc1Br)OCO3)CC(=O)N2 (configuration not stated) | 0.929 | -0.901
CCN(CC)c1nc(C)nc2sc(C(=O)Nc3ccc(C)cc3Br)c(C)c12 | 1.08 | 2.24
Cc1ccc(NC(=O)C(C)N2C(=O)c3ccccc3C2=O)c(Br)c1 (configuration not stated) | 1.01 | 0.553
CCOc1ccc(C(=O)Nc2c(C(=O)c3ccc(Br)cc3)oc3ccccc23)cc1 | 1.08 | 0.356
OC(c1ccccc1)(c1ccccc1)c1nc2ccccc2n1Cc1cccc(Br)c1 | 0.954 | -0.545

Going on with the list.
SMILES | CBX7 inh | CBX7 inh z-score
O=C(Nc1nc(-c2cccnc2)cs1)c1ccc(S(=O)(=O)N2CCc3ccccc32)cc1 | 1.02 | 0.49
COc1ccccc1N1CCN(CC(O)COc2ccc(C)c(C)c2)CC1 (configuration not stated) | 0.987 | -0.432
Cc1cccc(-c2nc(Nc3ccc(C)c(F)c3)c3ccccc3n2)c1 | 1.2 | 2.44
COc1ccc(C2=NOC(C(=O)NCc3cccnc3)C2)cc1 (configuration not stated) | 0.994 | -0.0758
CCOC(=O)c1ccc(NC(=O)C(=O)NCCCOC)cc1 | 1.03 | 0.812
CN1CCN(C(C(=O)NC2CCCCC2)c2ccc(Cl)cc2)CC1 (configuration not stated) | 1.02 | 0.767
COc1cccc(C(=O)Nc2cccc(-c3nc4ncccc4o3)c2C)c1 | 1.06 | 0.417
